Mtb H37Rv: Mycobacterium tuberculosis H37Rv growth inhibition, cell based, confirmatory dose response (AID 1949); M. tuberculosis H37Rv growth inhibition; most inactive calls were filed without a number and no value below 0 was filed; inhibition, % at 10 µg/mL, or IC50 in µg/mL where a hit was titrated; 100,000 compounds, 1.6% hits;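 active means confirmed in a dose series; inconclusive means about 50% or more but not retested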;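 further: bacteria grown 7 days with compound before Alamar blue readout; 0% = untreated bacteria and 100% = reference antibiotic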
An asterisk follows results filed as active. Not all compounds are listed; the hit share may differ from the screen's.

What do the screens show for `CC(C)N1CCC(NC(=S)Nc2ccc(F)c(Cl)c2)CC1`?
Mtb H37Rv: inactive

How did O=C(Nc1ccc(N2CCCC2)c(Cl)c1)c1sc2ccccc2c1Cl do in these assays?
Mtb H37Rv: 5%

Results for COc1ccc(C)cc1S(=O)(=O)NCc1ccccc1Cl ?
Mtb H37Rv: inactive

Results for CCOC(=O)c1ccc(NC(=O)CSc2nnc(-c3ccco3)n2-c2ccccc2)cc1 ?
Mtb H37Rv: inactive

Results for O=C(CN(c1ccccc1)S(=O)(=O)c1ccccc1[N+](=O)[O-])Nc1ccccc1C(=O)NCCc1ccccc1 ?
Mtb H37Rv: inactive

What do the screens show for `Cc1nnc(SCC(=O)n2c3c(c4ccccc42)CCCC3)n1C`?
Mtb H37Rv: inactive

How did CCOc1ccccc1N1CCN(C(=O)CC)CC1 do in these assays?
Mtb H37Rv: inactive

Results for Cc1ccc(NC(=O)CNS(=O)(=O)c2ccccc2)cc1Cl ?
Mtb H37Rv: inactive

How did Cc1ccc(-n2ncc3c(NCc4cccnc4)ncnc32)c(C)c1 do in these assays?
Mtb H37Rv: inactive

What do the screens show for `CCc1ccccc1NC(=O)c1cc(I)ccc1Cl`?
Mtb H37Rv: inconclusive

What do the screens show for `CCC(C(=O)Nc1cccc(I)c1)c1ccccc1` (centres undefined)?
Mtb H37Rv: inactive

How did COC(=O)c1sc(NC(=O)C2CCCO2)c(C(=O)OC)c1C (centres undefined) do in these assays?
Mtb H37Rv: inactive

Results for Cc1ccc(-c2cc(C(=O)O)c3cccc(Cl)c3n2)c(C)c1 ?
Mtb H37Rv: inactive

What do the screens show for `O=C(Oc1ccc2ccccc2c1)C(Cc1ccccc1)N1C(=O)C2C3CCC(C3)C2C1=O` (centres undefined)?
Mtb H37Rv: 1%

Results for CCOc1ccc(C2NC(=O)NC(C)=C2C(=O)Nc2ccccc2C)cc1 (centres undefined) ?
Mtb H37Rv: 4%

How did O=C(COc1ccc([N+](=O)[O-])cc1)Oc1ccc(Cl)cc1Br do in these assays?
Mtb H37Rv: inactive

Results for O=C(CSc1nnnn1-c1ccccc1)Nc1nc(-c2ccc(F)cc2)cs1 ?
Mtb H37Rv: inactive

How did CCOc1ccc(C(=O)NC(=S)Nc2cc(C(=O)O)ccc2Cl)cc1[N+](=O)[O-] do in these assays?
Mtb H37Rv: 2%

Results for COc1ccc(NC(=S)NC(=O)CC23CC4CC(CC(C4)C2)C3)c(OC)c1 ?
Mtb H37Rv: 13%

How did COc1ccc(C2/C(=C(\O)c3ccc(C)cc3)C(=O)C(=O)N2c2ncc(S(=O)(=O)c3ccc([N+](=O)[O-])cc3)s2)cc1 (centres undefined) do in these assays?
Mtb H37Rv: 2%

3 successive compounds from above, quoted:
Results for CCOc1ccc(C2NC(=O)NC(C)=C2C(=O)Nc2ccccc2C)cc1 (centres undefined) ?
Mtb H37Rv: 4%

How did O=C(COc1ccc([N+](=O)[O-])cc1)Oc1ccc(Cl)cc1Br do in these assays?
Mtb H37Rv: inactive

Results for O=C(CSc1nnnn1-c1ccccc1)Nc1nc(-c2ccc(F)cc2)cs1 ?
Mtb H37Rv: inactive

An excerpt from above in order of length of the SMILES, high to low:
What do the screens show for `O=C(Oc1ccc2ccccc2c1)C(Cc1ccccc1)N1C(=O)C2C3CCC(C3)C2C1=O` (centres undefined)?
Mtb H37Rv: 1%

Results for Cc1ccc(-c2cc(C(=O)O)c3cccc(Cl)c3n2)c(C)c1 ?
Mtb H37Rv: inactive

How did COC(=O)c1sc(NC(=O)C2CCCO2)c(C(=O)OC)c1C (centres undefined) do in these assays?
Mtb H37Rv: inactive

Results for COc1ccc(C)cc1S(=O)(=O)NCc1ccccc1Cl ?
Mtb H37Rv: inactive

What do the screens show for `CCc1ccccc1NC(=O)c1cc(I)ccc1Cl`?
Mtb H37Rv: inconclusive

Additional results follow.
Results for O=C(CCC(=O)c1ccc(F)cc1)Nc1ccc(C(=O)O)cc1 ?
Mtb H37Rv: inactive

How did Cc1cccc(C)c1OCCOCCN(C)C do in these assays?
Mtb H37Rv: 2%

What do the screens show for `O=C(NC(=S)NCC1CCCO1)c1ccc(Br)o1` (centres undefined)?
Mtb H37Rv: inactive

What do the screens show for `COC(=O)c1cc(COc2ccc3c(c2)oc(=O)c2cc(OC)ccc23)c(C)o1`?
Mtb H37Rv: inactive

How did COc1ccccc1N1CCN(S(=O)(=O)c2ccc(S(N)(=O)=O)cc2)CC1 do in these assays?
Mtb H37Rv: 4%

Results for COc1ccc(OC)c(S(=O)(=O)Nc2ccc(C(C)=O)cc2)c1 ?
Mtb H37Rv: inactive

How did CCCC(=O)Nc1ccccc1NC(=O)c1ccc(Br)o1 do in these assays?
Mtb H37Rv: inactive

Results for O=C(NC(=S)Nc1ccccc1Br)C1CCCC1 ?
Mtb H37Rv: inactive

What do the screens show for `CCc1cccc2c(C#N)cn(CC(=O)NC(C)C)c12`?
Mtb H37Rv: inactive

Results for O=C(Nc1ccccc1C(=O)NC1CCCCC1)c1ccc(Cl)c(S(=O)(=O)N2CCOCC2)c1 ?
Mtb H37Rv: inactive

How did COc1ccc(S(=O)(=O)N2CCN(c3ccc(Cl)c(Cl)c3)CC2)cc1 do in these assays?
Mtb H37Rv: 2%

How did CC(C(=O)Nc1cccc(C(F)(F)F)c1)N(c1ccc(Oc2ccccc2)cc1)S(C)(=O)=O (centres undefined) do in these assays?
Mtb H37Rv: 12%

How did CCc1ccc(OC(=O)COc2ccccc2Cl)c(Br)c1 do in these assays?
Mtb H37Rv: inactive

Results for Nc1c(C(=O)C2CC2)sc2nc3c(cc12)CCCC3 ?
Mtb H37Rv: 4%

Results for Cc1cccc(OCC(=O)Nc2ccc(N3CCN(C)CC3)cc2)c1C ?
Mtb H37Rv: inactive

How did CCC(=O)n1nc(-c2ccco2)nc1SC do in these assays?
Mtb H37Rv: 5%

What do the screens show for `COc1ccc2ccccc2c1/C=C(/C#N)c1nc2ccccc2s1`?
Mtb H37Rv: inactive

How did O=C(CN1CCCCC1)N1c2ccccc2Sc2ccc(C(F)(F)F)cc21 do in these assays?
Mtb H37Rv: inactive

How did COC(=O)c1c(NC(=O)c2ccc([N+](=O)[O-])cc2)sc(C)c1C do in these assays?
Mtb H37Rv: inactive

Results for CC(=O)Nc1cc(-c2nn(CC(=O)N3CCCCC3)c(=O)c3ccccc23)ccc1N1CCOCC1 ?
Mtb H37Rv: inactive

Results for CCOc1ccc(NC(=S)NNC(=O)c2ccncc2)cc1 ?
Mtb H37Rv: 12%

Results for O=C1/C(=C/c2ccccc2)SC(=S)N1C1CCCCC1 ?
Mtb H37Rv: inactive

What do the screens show for `c1ccc(SCc2nc(-c3cccnc3)no2)cc1`?
Mtb H37Rv: 1%

What do the screens show for `Cc1ccc(Cl)cc1NC(=O)Cn1cnc2ccccc2c1=O`?
Mtb H37Rv: inactive

Results for COc1cccc(CNc2cccc(C)c2)c1OC ?
Mtb H37Rv: 1%

Results for CCCOc1cc(C(N)CC(=O)OC)ccc1OC (centres undefined) ?
Mtb H37Rv: inactive

Results for COc1ccccc1CNC(=O)c1ccc(N(C)S(=O)(=O)c2ccc(C)cc2)cc1 ?
Mtb H37Rv: inactive

Results for CCc1cccc(CC)c1NC(=O)c1ccc(C(C)(C)C)cc1 ?
Mtb H37Rv: inactive

Results for Cc1cccc(-n2c(SCC(N)=O)nnc2-c2ccncc2)c1C ?
Mtb H37Rv: inactive

How did CCOC(=O)C1CCN(C(=O)c2cc(Br)ccc2Cl)CC1 do in these assays?
Mtb H37Rv: inactive

What do the screens show for `O=C(Nc1cc(Cl)ccc1Cl)C1CN(S(=O)(=O)c2ccccc2)CCN1S(=O)(=O)c1ccccc1` (centres undefined)?
Mtb H37Rv: inactive

What do the screens show for `CCOC(=O)c1ccc2nc(NC(=O)CSc3nc(=O)cc(N)n3-c3ccccc3)sc2c1`?
Mtb H37Rv: inactive

What do the screens show for `CC(C)CNC(=O)c1ccccc1NC(=O)C(C)(C)C`?
Mtb H37Rv: inactive

Results for CCOc1ccc(C(=O)NC(=S)Nc2ccc(C(=O)O)c(Cl)c2)cc1Br ?
Mtb H37Rv: 6%

What do the screens show for `COC(=O)c1cccc(NC(=O)CSCc2ccc(OC)cc2)c1C`?
Mtb H37Rv: inactive

Results for CCOC(=O)c1ccc(NC(=O)Cc2ccc(Cl)cc2)cc1 ?
Mtb H37Rv: 2%

How did N#CC1=C(SCC(=O)Nc2cc(S(=O)(=O)N3CCOCC3)ccc2Cl)NC(=O)CC1c1ccccc1F (centres undefined) do in these assays?
Mtb H37Rv: 32%

How did COc1cc2[nH]c(=S)n(CCc3c[nH]c4ccccc34)c(=O)c2cc1OC do in these assays?
Mtb H37Rv: inactive

How did COc1cc2ccccc2cc1C(=O)NC1C2CC3CC(C2)CC1C3 (centres undefined) do in these assays?
Mtb H37Rv: 36%

How did COC(=O)C(C)N(c1ccc(OC)cc1)S(C)(=O)=O (centres undefined) do in these assays?
Mtb H37Rv: inactive

What do the screens show for `CCn1ncc(Cl)c1C(=O)Nc1cc(Cl)ccc1Cl`?
Mtb H37Rv: inactive

What do the screens show for `O=C(Nc1ccc(-c2noc(/C=C/c3ccccc3)n2)cc1)c1ccncc1`?
Mtb H37Rv: 6%

What do the screens show for `CCOC(=O)c1ccc(NC(=O)NCc2ccncc2)cc1`?
Mtb H37Rv: inactive

Results for COc1cc(OC)c(C2C(C(=O)OCCOc3ccccc3)=C(C)NC3=C2C(=O)CC(C)(C)C3)cc1OC (centres undefined) ?
Mtb H37Rv: inactive

Results for Cc1cc(NS(=O)(=O)c2ccc(NC(=O)c3c(-c4ccccc4)noc3C)cc2)nc(C)n1 ?
Mtb H37Rv: inactive

How did COc1ccc(S(=O)(=O)Nc2ccc(Br)c(C)c2)cc1C do in these assays?
Mtb H37Rv: inactive

Results for O=C(CN(C(=O)c1ccc(Cl)cc1)N1C(=O)C2C3C=CC(C4CC34)C2C1=O)c1cccs1 (centres undefined) ?
Mtb H37Rv: inactive

Results for COc1ccccc1CNC(=O)COc1ccccc1Cl ?
Mtb H37Rv: inactive

How did COc1ccc(N(CC(=O)Nc2ccccc2C(C)C)S(=O)(=O)c2ccc(C)cc2)cc1 do in these assays?
Mtb H37Rv: 4%

Results for COc1ccc(-c2oc3ncnc(N)c3c2-c2ccc(OC)cc2)cc1 ?
Mtb H37Rv: 0%

Results for c1ccc(Cn2ccnc2SCc2nnc(-c3ccccc3)o2)cc1 ?
Mtb H37Rv: 3%

Results for O=C(CSc1nnnn1Cc1ccccc1)NCC(=O)c1ccccc1 ?
Mtb H37Rv: inactive

What do the screens show for `O=C(COc1ccccc1)Nc1scc(-c2ccccc2)c1C(=O)NCc1ccco1`?
Mtb H37Rv: 3%

How did COc1ccc(NC(=O)c2cncc(O)c2)cc1OC do in these assays?
Mtb H37Rv: inactive

How did CC1=CC(C)(C)N(C(=O)CSc2nnc(C)s2)c2ccc(C)cc21 do in these assays?
Mtb H37Rv: 16%

Results for Cc1ccc(C(=O)NCc2nnc(SCC(=O)Nc3ccc(I)cc3C(C)C)n2C)cc1 ?
Mtb H37Rv: inactive

Results for COc1ccccc1C(=O)NNC(=O)c1ccc(Br)o1 ?
Mtb H37Rv: inactive

What do the screens show for `Cc1ccccc1NC(=O)COc1ccc(S(=O)(=O)NCCc2ccccc2)cc1`?
Mtb H37Rv: 13%

What do the screens show for `Cc1ccc(C2C(C(=O)c3ccco3)=C(O)C(=O)N2c2cc(C)on2)cc1` (centres undefined)?
Mtb H37Rv: inactive

How did CCOC(=O)c1cnc(SCC(=O)N2c3ccccc3SC3C=CC=CC32)nc1N (centres undefined) do in these assays?
Mtb H37Rv: inconclusive

How did CCOC(=O)c1[nH]c(C)c(/C(O)=C2\C(=O)C(=O)N(CCCN(CC)CC)C2c2cccs2)c1C (centres undefined) do in these assays?
Mtb H37Rv: inactive

How did COc1ccc(C)cc1N(CC(=O)Nc1cc(Cl)ccc1C)S(C)(=O)=O do in these assays?
Mtb H37Rv: inactive

How did CCOc1ccccc1C1C(C#N)=C(SC)NC2=C1C(=O)CCC2 (centres undefined) do in these assays?
Mtb H37Rv: inactive

How did O=C(CNC(=O)c1ccccc1)OCc1ccc(C(=O)Oc2ccccc2)cc1 do in these assays?
Mtb H37Rv: inactive

Results for CC(C)CNS(=O)(=O)c1ccc(CCC(=O)NCCc2ccccc2)cc1 ?
Mtb H37Rv: inactive

Results for CCOc1cccc(CNc2ccc(NC(=O)CC)cc2)c1O ?
Mtb H37Rv: 7%

What do the screens show for `COC(=O)c1ccccc1NC(=O)C1CCCN(S(C)(=O)=O)C1` (centres undefined)?
Mtb H37Rv: inactive

How did Cc1ccc(NC(=S)Nc2cc(Cl)ccc2Oc2ccccc2)cc1 do in these assays?
Mtb H37Rv: inactive

Results for CCOc1cc(CN2CCN(S(C)(=O)=O)CC2)ccc1OC ?
Mtb H37Rv: inactive

How did CCNC(=S)N1CCN(c2cccc(C)c2C)CC1 do in these assays?
Mtb H37Rv: 0%

Results for CC(=O)Nc1ccc(S(=O)(=O)Nc2ccc(-c3csc(C)n3)cc2)cc1 ?
Mtb H37Rv: inactive

What do the screens show for `CS(=O)(=O)N(Cc1ccccc1)c1ccc(C(=O)NCc2cccnc2)cc1`?
Mtb H37Rv: inactive

What do the screens show for `Cc1ccc2nc(-c3ccc(NC(=O)c4ccc(CN5CCOCC5)cc4)cc3)sc2c1`?
Mtb H37Rv: inactive

Results for COc1ccc([N+](=O)[O-])cc1NC(=O)c1cc2sc3ccccc3c2s1 ?
Mtb H37Rv: inactive

Results for COc1ccc(S(=O)(=O)Nc2ccccc2C(=O)NC2CCCCC2)cc1 ?
Mtb H37Rv: inactive

What do the screens show for `O=C(CSc1ccccc1)Nc1cccc2c(NC(=O)CSc3ccccc3)cccc12`?
Mtb H37Rv: inactive
